Cruzain noTriton – inhibitors of Trypanosoma cruzi cruzain without detergent | actives 2.3% (n = 200,000) | P25779 | AID 1476 | Potency, µM, without a hit: max response, negative = inhibition, hits mostly inhibitors | purified cruzain, Z-FR-AMC fluorescence, no detergent;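 note: plate controls were enzyme without inhibitor for no effect and buffer without enzyme for full effect; nearly all actives have a fitted effect of over 40% in size; top concentration of the series not given in the record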
Target sequence (P25779 123-467 limits assumed): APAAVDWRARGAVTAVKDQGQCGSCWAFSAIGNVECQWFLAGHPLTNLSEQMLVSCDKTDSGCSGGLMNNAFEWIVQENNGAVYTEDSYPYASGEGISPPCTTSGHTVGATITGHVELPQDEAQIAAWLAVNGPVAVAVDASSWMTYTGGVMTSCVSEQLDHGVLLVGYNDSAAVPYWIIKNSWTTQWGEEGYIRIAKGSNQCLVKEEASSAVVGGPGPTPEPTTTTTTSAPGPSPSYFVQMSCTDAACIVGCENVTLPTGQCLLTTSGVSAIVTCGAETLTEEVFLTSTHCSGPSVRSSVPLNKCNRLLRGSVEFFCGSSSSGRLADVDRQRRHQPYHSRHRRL
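Detergent-free condition (0.00005% Triton X-100) in acetate buffer pH 5.5 with DTT. 1.5 nM enzyme and compound were pre-mixed 15 min, then 2 uM Z-FR-AMC substrate added; reaction progress from fluorescence change between first and third reads (60 s).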
NS1 function inh – influenza NS1 inhibition. S. cerevisiae slowed by influenza A NS1, growth recovery by OD600. Potency, µM (highest dose often 46.1 µM), for the others: top-dose activity, positive = more growth. actives 0.4% (n = 270,000). AID 2326; active means well fitted rising curve with a large enough effect; inconclusive means small, poorly fitted or top-dose-only effect; inactive means no such curve, though single readings can be large or run the other way; note: nearly all actives have a fitted effect of over 50% in size
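Read-out: OD600 growth recovery of NS1-expressing budding yeast. Cells grown overnight at 30C in -URA glucose medium, washed, resuspended and diluted 1:100 in 2% galactose assay medium, pH 6.0. Same strain lacking NS1 served as positive control.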
RE007 growth inh – less growth of the S. pombe RE007 Vpr strain. Potency, µM (highest dose often 92.2 µM), for inactives: at the top dose activity change, negative = less growth. actives 0.21% (n = 360,000). S. pombe RE007 Vpr strain, BacTiter-Glo ATP luminescence, 24 h; control for the full effect not named in the record; active = well fitted falling curve with a large enough effect; inconclusive = small, poorly fitted or top-dose-only effect; inactive = no such curve, though single readings can be large or run the other way;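 note: % is set by controls: 0 for no effect and ±100 for the full control effect; nearly all actives have a fitted effect of over 50% in size; the assay follows cell death caused by Vpr and the record does not say whether a fall means rescue or toxicity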
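Fission yeast strain RE007, carrying one chromosomally integrated HIV-1 vpr copy, was seeded at OD 0.01 in PMG+AL medium with 23 nL pinned compound. After 24 h at 30 °C and 99% humidity, viability was read by BacTiter-Glo luminescence.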
Cruzain inh Det – blocks cruzain activity in presence of Triton detergent. P25779. purified cruzain, Z-FR-AMC fluorescence, 0.01% Triton. Potency, µM, inactives show max response, negative = inhibition, hits mostly inhibitors. actives 0.43% (n = 200,000);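 note: plate controls were neutral wells for no effect and buffer without enzyme for full effect; nearly all actives have a fitted effect of over 40% in size; top concentration of the series not given in the record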
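Read-out: AMC fluorescence (360 nm excitation, 450 nm emission), four reads over 2 min, first-to-third difference used. Conditions: cruzain 1.5 nM, Z-FR-AMC 2 uM, pH 5.5 acetate, 5 mM DTT, 0.01% Triton X-100.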
LASV entry inh – Lassa virus entry inhibition; AID 540256; actives 1.2% (n = 300,000); Lassa virus pseudotype entry inhibition, cell reporter; control for the full effect not named in the record; Potency, µM (top dose mostly 37.9 µM), for inactives: at the top dose activity change, negative = inhibition, most hits filed as inhibitors; active means well fitted inhibition curve with a large enough effect; inconclusive means small, poorly fitted or top-dose-only effect, or effect the other way; inactive means flat fitted curve, though single readings scatter; tested in HEK293 cells; note: % is set by controls: 0 for no effect and ±100 for the full control effect; nearly all actives have a fitted effect of over 50% in size; luciferase read-out
StopGo reporter – lowers the luciferase signal of an FMDV 2A StopGo reporter | human cells with a luciferase reporter of 2A StopGo recoding; control for the full effect not named in the record | Potency, µM (series often up to 57.9 µM), for the others: top-dose signal change, negative = less light | actives 1.2% (n = 410,000); active = well fitted falling curve with a large enough effect; inconclusive = small, poorly fitted or top-dose-only effect; inactive = no such curve, though single readings can be large or run the other way; tested in HEK293T cells; note: % is set by controls: 0 for no effect and ±100 for the full control effect; nearly all actives have a fitted effect of over 45% in size; luciferase light after 4 h
SARS PLP yeast – blocks SARS-CoV papain-like protease in a yeast assay; S. cerevisiae expressing SARS-CoV PLpro, growth rescue; control for the full effect not named in the record; Potency, µM (doses to about 32.9 µM), inactives show at the highest dose activity, positive = growth rescue; actives 0.19% (n = 330,000); active means well fitted rising curve with a large enough effect; inconclusive means small, poorly fitted or top-dose-only effect; inactive means no such curve, though single readings can be large or run the other way; note: 0% is about no effect; nearly all actives have a fitted effect of over 55% in size; growth read by luminescence after 48 h
MARV entry inh – inhibitors of Marburg virus binding or cell entry; Marburg virus pseudotyped entry inhibition, cell reporter; control for the full effect not named in the record; about a third of the inactives were read at about 46 µM; Potency, µM (doses to about 37.8 µM), for the others: at the highest dose activity change, negative = inhibition, hits mostly inhibitors; actives 1.8% (n = 300,000); AID 540276; active = well fitted inhibition curve with a large enough effect; inconclusive = small, poorly fitted or top-dose-only effect, or effect the other way; inactive = flat fitted curve, though single readings scatter; tested in HEK293 cells; about a fifth of its hits are not listed in these tables; note: % is set by controls: 0 for no effect and ±100 for the full control effect; luciferase read-out
Numbers without * were called inactive; ? = inconclusive; . = no result given; & = joins results of further samples; [ ] = remark or other dose. Unless noted, calls come from the whole dose curve; as a rule, active = well fitted curve in the direction sought with a large enough effect; inconclusive = small, poorly fitted or top-dose-only effect, or another doubt; inactive = no such curve, though single readings can be large; an effect the other way counts as inactive or inconclusive. Potency is the fitted concentration of half-maximal effect.

Each structure is followed by: Cruzain noTriton	NS1 function inh	StopGo reporter	MARV entry inh	Cruzain inh Det	RE007 growth inh	LASV entry inh	SARS PLP yeast
- CCOc1cc(CNCCSc2nnnn2C)cc(Br)c1OCc1ccc(F)cc1
    19%	-3%	?	?	1.1%	0%	?	?
- CCOc1ccc(Cl)cc1/C=C1/C(=O)ON=C1C
    .	-1%	40µM*	14%[46.1 µM]	.	6%	11%[46.1 µM]	-2%
- C=CCn1c(SCC(=O)NC2CCCC2)nc2sc(C)cc2c1=O
    .	.	-15%	6%[46.1 µM]	.	8%	2%	3%
- Cc1ccc(S(=O)(=O)N2CCN(c3ccccc3)CC2)cc1C(N)=O
    .	.	-7%	-24%	.	-2%	-3%[46.1 µM]	0%
- Cc1cc(OCC(=O)NCCO)cc(C)c1Cl
    7%	-15%	3%	6%[46.1 µM]	2.4%	3%	24%	-5%
- COc1cc(CNCCc2c[nH]c3ccccc23)ccc1OCc1ccccc1F
    -1%	23%	.	?	-1.1%	0%	?	-5%
- C=CCc1ccc(O)c(-c2cc(CC=C)ccc2O)c1
    7%	-35%	16%	.	1.1%	?	.	-4%
- O=C(Cn1cnc2ccccc2c1=O)N1CCN(Cc2ccccc2)CC1
    7%	1%	-32%	12%	-2.6%	12%	16%	2%
- CCOc1ccccc1NC(=O)CC1NCCNC1=O (stereo not given)
    -17%	-2%	5%	5%	3.6%	3%	3%	0%
- Cn1c2ccccc2c2nnc(SCC(=O)NCc3ccoc3)nc21
    .	0%	-3%	3%[46.1 µM]	.	10%	-9%	0%
- c1ccc2c(c1)nc1n2CCN1CCNC1CCCCC1
    11%	0%	-11%	?	4.4%	-1%	9%	2%
- Cn1nnnc1SC1CC(=O)N(c2ccccc2)C1=O (stereo not given)
    .	-54%	1%	?	.	32µM*	-17%	-5%
- Cc1cc(C(F)(F)F)nn1CC(=O)NCc1ccco1
    .	7%	3%	.	.	0%	.	1%
- CCSc1nnc(NC(=O)C2CCN(C(=O)c3ccc(F)cc3)CC2)s1
    .	.	-19%	-10%	.	3%	14%	1%
- O=C(CSC1=NCCN1)Nc1cccc([N+](=O)[O-])c1
    .	.	18µM*	?	.	-1%	-9%	1%
- Cc1ccc(-n2nc3c(N4CCC(C(=O)N(C)Cc5ccccc5)CC4)nnc(C)c3c2C)cc1
    3%	.	-14%	.	-2.9%	.	?	.
- Nc1nc(SCC(=O)c2ccc(Oc3ccccc3)cc2)n[nH]1
    -23%	-5%	49%[activator]	9%	-1.9%	-10%	6%	-13%
- Cc1ccccc1Nc1c(-c2ccsc2)nc2c(C)cccn12
    5%	.	?	6%[46.1 µM]	-9.1%	.	4%[46.1 µM]	.
- O=C(CN1CCN(c2ccc(F)cc2)CC1)Nc1cccc(C(F)(F)F)c1
    ?	-70%	?	-18%	-8.4%	-14%	-14%	-22%
- Cc1cccc(N2CCN(C(=O)CCS(=O)(=O)c3ccc4c(c3)NC(=O)CO4)CC2)c1C
    .	-1%	?	.	.	-4%	.	-15%
- CCN1CCc2c(C#N)c(NCc3ccccc3)nc(NCCO)c2C1
    5%	2%	-19%	-4%	0.7%	10%	-9%	6%
- Cc1cccn2c(=O)c(C=NCc3ccco3)c(Nc3ccc(SC(F)F)cc3)nc12
    8%	11%	-22%	?	-1.0%	14%	9.2µM*	2%
- COC(=O)N1CC(c2ccccc2)CC1=O (stereo not given)
    6%	5%	-2%	0%	2.9%	-13%	0%	3%
- Cc1cccc(Cn2c(=O)c3c(nc4n3CCN4Cc3ccco3)n(C)c2=O)c1
    ?	-4%	-22%	-2%&-2%	-5.9%	18%	7%	-1%
- Cc1cc(S(=O)(=O)N2CCCCC2)c(C)s1
    .	-12%	-6%	.	.	-7%	.	5%
- CCc1nc(SCCO)c2oc3ccccc3c2n1
    -2%	-22%	-23%	14%	-0.2%	-28%	16%	7%
- CCN(CC(=O)Nc1ccc2c(c1)OCCO2)C(=O)/C=C/c1ccc(F)cc1
    .	.	35%[activator]	?	.	8%	25%[46.1 µM]	-1%
- COCCNC(=O)c1ccc(N2CCC3(CC2)OCCO3)c([N+](=O)[O-])c1
    5%	1%	4%	15%	-1.3%	5%	8%	21%
- Cc1cccc(-n2[nH]c3c4c(ccc3c2=O)C(=O)c2ccccc2C4=O)c1
    ?	10%	-24%	-13%	-1.0%	?	0%	-4%
- COc1ccc2oc3cc(C)[n+]([O-])c(-c4ccc(Cl)cc4)c3c2c1
    -10%	4%	35µM*	?	-2.1%	14%	?	-17%
- Cc1nn(C)c(C)c1S(=O)(=O)N(CC(=O)Nc1nccs1)c1ccc(C(C)C)cc1
    8%	-51%	21%	.	-5.3%	1%	.	23%
- CN(C)c1cccc(C(=O)NCC(c2ccco2)N(C)C)c1 (stereo not given)
    .	?	13%	?	.	11%	10%[46.1 µM]	16%
- COc1cc(NC(=O)c2cccs2)c(OC)cc1NC(=O)Nc1ccc(F)cc1
    .	4%	-14%	1%[46.1 µM]	.	0%	-12%[46.1 µM]	1%
- Cc1ccc(C2=CC(c3ccc(N(C)C)cc3)n3nnnc3N2)cc1 (stereo not given)
    ?	-17%	-9%	.	-1.1%	-8%	.	-15%
- COCCNC(=O)c1cccc(OC2CCN(Cc3ccccc3C)CC2)c1
    .	18%	-12%	-3%[46.1 µM]	.	-22%	-11%[46.1 µM]	2%
- COc1cccc(CNC(=O)Cc2ccc(Br)cc2)c1
    -10%	3%	5%	-9%	-0.8%	18%	14%	6%
- CCOc1cc2[nH]c(=O)n(CC3CCC(C(=O)NCCCOC)CC3)c(=O)c2cc1OCC (stereo not given)
    ?	8.9µM*	13%	4%&4%	0.7%	-11%	-9%	4%
- O=C(c1cnccn1)N(c1ccccc1)C1(C(=O)NC2CCCC2)CCCCC1
    11%	-4%	0%	-6%	9.2%	13%	0%	-2%
- Cc1ccc2nc3c(cc(C(=O)NC4CCCC4)c(=N)n3C3CCCCC3)c(=O)n2c1
    .	0%	0%	-4%[46.1 µM]	.	-9%	1%	1%
- O=C(N/N=C/c1ccccc1)C(O)c1ccccc1 (stereo not given)
    .	1%	55%[activator]	.	.	-11%	.	2%
- Nc1ccc(N2CCOCC2)c(S(=O)(=O)Nc2cc(Cl)ccc2Cl)c1
    .	.	10%	3%[46.1 µM]	.	2%	7%[46.1 µM]	-1%
- NS(=O)(=O)c1ccc(NC(=O)COC(=O)C2CC(=O)N(Cc3ccccc3)C2)cc1 (stereo not given)
    .	.	8%	16%[46.1 µM]	.	4%	-21%[46.1 µM]	0%
- CCOc1ccc(C(=O)Nc2ccc(C(=O)N3CCOCC3)cc2)c(OCC)c1
    .	5%	-7%	-18%	.	3%	1%	?
- O=[N+]([O-])c1ccc2nc(-c3ccccc3)cc(-c3ccccc3)c2c1
    ?	10%	-8%	?	-0.9%	-12%	-2%	15%
- COc1cc2c(=O)n(CC3CCCO3)c(=O)n(CC(=O)Nc3ccccc3)c2cc1OC (stereo not given)
    .	-22%	-23%	.	.	0%	.	8%
- Cc1cc(C(=O)N[C@@H](c2ccccc2)[C@]2(C)C[C@H]2[C@@H](C)C(=O)Nc2ccc3ccccc3c2)no1
    ?	11µM*	-25%	-10%	-2.9%&2.3%	-6%	-9%	?
- Cc1ccc(C(=O)Nc2cccc(C(=O)N3CCN(C)CC3)c2)cc1
    -1%	-11%	0%	5%	5.3%	4%	1%	10%
- COc1ccc(OC)c(NC(=O)Cc2csc(NC(=O)Nc3ccccc3OC)n2)c1
    .	.	?	?	.	0%	-19%[46.1 µM]	-4%
- Cc1ccc(C2CC(=O)N(Cc3ccccc3)c3c2c(C)nn3-c2nc(C)cc(C)n2)cc1 (stereo not given)
    ?	.	3%	-5%[46.1 µM]	-1.3%	.	1%[46.1 µM]	.
- CCOc1ccc(-c2nc(CN3CCCCC3CCn3cccn3)c(C)o2)cc1 (stereo not given)
    .	-3%	5%	.	.	-13%	.	0%
- O=C(CNC(=O)c1ccc(S(=O)(=O)N2CCCC2)cc1)N/N=C/c1c(Cl)cccc1Cl
    -3%	-7%	?	?	-1.9%	-11%	?	12%
- O=C(CNC(=O)c1ccccc1)OCC(=O)c1c[nH]c2ccccc12
    .	.	10%	4%[46.1 µM]	.	2%	-20%[46.1 µM]	-21%
- COc1ccc(CCC(=O)Nc2ccc(Cn3ccnc3)cc2)cc1
    .	15%	-3%	.	.	2%	.	-2%
- Cc1ccc(N2C(=O)N(CC(=O)c3cc(C)ccc3C)C(=O)C2C)cc1 (stereo not given)
    -4%	7%	-28%	-24%	-8.2%	6%	-25%	-54%
- Cc1ccccc1N=C/C=C1\N(C)c2ccccc2C1(C)C
    -15%	6%	0%	?	-5.1%	-17%	11%	-7%
- COc1ccc(OC)c(NC(=O)Cn2cc(C(=O)c3ccco3)c3ccccc32)c1
    -9%	-87%	.	?	-3.1%	12%	?	0%
- O=C(O)CCc1ccc(-c2ccc(Cl)cc2)n1Cc1ccco1
    9%	-3%	.	2%	-11%	-2%	-7%	-7%
- Cc1ccc(CCNS(=O)(=O)c2c(C)nc3sc(C)c(C)n3c2=O)cc1
    -8%	.	-12%	.	-2.2%	.	27%[46.1 µM]	.
- C=CCNC(=O)c1c2c(nc3ccccc13)-c1ccccc1CC2
    0%	-6%	-25%	-20%	-6.4%	-28%	0%	-8%
- COc1ccc(NC(=O)C2CCCC2)cn1
    .	.	7%	-8%[46.1 µM]	.	7%	3%	2%
- CC(C)(C)P(=O)(c1ccncc1)N1CCCC1 (stereo not given)
    13%	-3%	.	-11%	7.8%	-2%	0%	-2%
